Screening results (PubChem BioAssay)
Methyltransferases: Primary Screen for Target Class Profiling of Small Molecule Inhibitors of Methyltransferases | actives 3.9% (n = 25,000) | AID 1745853, 2022 | purified enzyme, MTase-Glo SAH luminescence; active compounds read low | calls only at 40 µM; active = -50% or lower on at least one of six enzymes; inconclusive = the cases between; inactive = as a rule above -30% on all six;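 also: enzymes were COMT GAMT GNMT HNMT NNMT and PNMT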
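Each enzyme was assayed with SAM and its substrate. SAH formation detected by MTase-Glo luminescence; single-point 40 uM screen[…].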
Calls only; i = inactive; ? = inconclusive; + = active, no number; ! = not active in a repeat. % is scaled to controls: 0 for no effect and ±100 for the full control effect. Some of the compounds tested; rates above refer to the full screens.

SMILES	Methyltransferases
Cc1ccccc1Cc1c(C)nc2c(C(=O)N3CCC(Cc4nncn4CC4CC4)CC3)cnn2c1C	i
CC(C)OCCCn1c(=O)c2ccccc2n2c(SCc3ccc(F)cc3Cl)nnc12	i
Brc1cccc(-c2nnn3c2nc(NCc2ccccc2)c2ccccc23)c1	i
O=C(/C=C/c1ccc(O)cc1)OCC1OC(O)C(OC2OC(CO)C(O)C(O)C2O)C(O)C1O (stereo not drawn)	i
CCOC(=O)C1CCN(C(=O)Cn2c(=O)oc3cc(S(=O)(=O)N4CCCC4)ccc32)CC1	i
CC[C@@H]1[C@H]2CCCCN3C(=O)C[C@H]([C@@H]4[C@H]1OC(=O)[C@H]4C)[C@@H]23	i
O=C1CCCC2=C1C1(CCCC1)N=C(Nc1nc3ccccc3o1)N2	?
COc1cncc(Nc2ncc(-c3ccccc3OC)c3c2OCC3)c1	+
CCn1nc(C)c(-c2cc(C(=O)N3CCC(CCOc4ccccc4OC)C3)no2)c1C (stereo not drawn)	i
NC(N)=[N+]1CCc2ccccc2C1	i
CC(C)Cn1c(=O)c2ccc(C(=O)NC(C)C)cc2n2c(SCC(=O)c3ccccc3)nnc12	i
NC(=O)c1ccc2[nH]ccc2c1	i

Structural class, the compounds so far with sulfur.
SMILES	Methyltransferases
CC(C)OCCCn1c(=O)c2ccccc2n2c(SCc3ccc(F)cc3Cl)nnc12	i
CCOC(=O)C1CCN(C(=O)Cn2c(=O)oc3cc(S(=O)(=O)N4CCCC4)ccc32)CC1	i
CC(C)Cn1c(=O)c2ccc(C(=O)NC(C)C)cc2n2c(SCC(=O)c3ccccc3)nnc12	i

(continued)
SMILES	Methyltransferases
C=Cc1ccc(CSc2nnc3n(CCC(C)C)c(=O)c4ccccc4n23)cc1	i
C=CC(C)(O)CC/C=C(\C)C1CC=C(C)C(=O)O1 (stereo not drawn)	i
CC[C@H](CC#N)OC(=O)N[C@@H](C)c1cccc(NC(=O)Nc2ccc(-c3cnco3)c(OC)c2)c1	i
O=C(Cc1cccc(Cl)c1)NC1CCN(Cc2ccc(-c3ccsc3)cc2)C1 (stereo not drawn)	i
C/C=C/C=C/C=C/C(=O)OC1C=C2C(O)OC(=O)[C@]2(O)[C@@]2(C)CCCC(C)(C)[C@H]12 (stereo partly drawn)	i
CN(CCCN1C(=O)c2cc3occc3n2CC1(C)C(=O)NC1CCCCCCC1)C1CCCCC1 (stereo not drawn)	i
O=C(NCc1ccco1)C1CC(c2ccccc2)CN(C(=O)Nc2ccc(Cl)cc2)C1 (stereo not drawn)	i
COc1cc2c(NC3CCN(C(C)C)CC3)nc(C3CCCCC3)nc2cc1OCCCN1CCCC1	+!
O=C(C1CCCC1)N1CCCC(C(=O)N2CCC(c3nc4ccncc4[nH]3)C2)C1 (stereo not drawn)	i
CC(C)n1cc2cc(C(=O)Nc3ccc4c(c3)OCCO4)sc2c1	i
Cn1ccc(C(=O)NCc2nnc3n2C(C(=O)NCCc2ccc(Cl)cc2)CC3)n1 (stereo not drawn)	i
CCCn1cnc2cc(CNS(=O)(=O)c3ccc(F)cc3)ccc21	i

2 of the compounds above, bar-delimited.
Structure | Methyltransferases
O=C(NCc1ccco1)C1CC(c2ccccc2)CN(C(=O)Nc2ccc(Cl)cc2)C1 (stereo not drawn) | i
COc1cc2c(NC3CCN(C(C)C)CC3)nc(C3CCCCC3)nc2cc1OCCCN1CCCC1 | +!

More entries follow.
SMILES	Methyltransferases
CC1(C(=O)O)CCCC2(C)C3CCC4CC3(CCC12)CC4C(=O)O (stereo not drawn)	i
COc1ccccc1-c1cn2c(n1)CO[C@@H](CNC1CCOCC1)C2	i
CC(C)CNC(=O)N1CCn2cccc2C1C (stereo not drawn)	i
Cc1ccc(C)c(C(=O)Cn2nc3n(CC(C)C)c(=O)c4ccc(C(=O)NCC(C)C)cc4n3c2=O)c1	i
CCc1ccc(NC(=O)Cn2c(=O)oc3cc(S(=O)(=O)N4CCCCC4)ccc32)cc1	i
CCN1C(=O)c2cc(C(=O)NCCCN3CCc4ccccc4C3)nn2CC1(C)C(=O)NC1CCCC1 (stereo not drawn)	i
CC1CCC(NC(=O)C2(C)Cn3c(nc4ccccc43)C(=O)N2CC(C)c2ccccc2)CC1 (stereo not drawn)	i
CN1C(=O)c2cc3ccccc3n2CC1(C)C(=O)NCC(=O)NCc1ccccc1F (stereo not drawn)	i
CCOc1ccccc1NC(=O)N1CCn2c(C)ccc2C1CC (stereo not drawn)	i
C=CCn1c(=O)c2ccc(C(=O)NCC(C)C)cc2n2c(=O)n(CC(=O)NC3CCCC3)nc12	i
COc1ccc(CCN2C(=O)c3cc4occc4n3CC2(C)C(=O)NC2CCC(C)CC2)c(OC)c1 (stereo not drawn)	i
CCCN(CCC)C(=O)C(CCC(=O)OCCCN1CCN(CCOC(=O)Cc2c(C)n(C(=O)c3ccc(Cl)cc3)c3ccc(OC)cc23)CC1)NC(=O)c1ccccc1 (stereo not drawn)	i

A second format for part of the listing above:
> C=Cc1ccc(CSc2nnc3n(CCC(C)C)c(=O)c4ccccc4n23)cc1
  Methyltransferases: i
> CCOc1ccccc1NC(=O)N1CCn2c(C)ccc2C1CC (stereo not drawn)
  Methyltransferases: i
> NC(=O)c1ccc2[nH]ccc2c1
  Methyltransferases: i
> C=CC(C)(O)CC/C=C(\C)C1CC=C(C)C(=O)O1 (stereo not drawn)
  Methyltransferases: i

Next section
SMILES	Methyltransferases
CCOc1ccc(CNC(=O)c2ncn3c2C(=O)N(C2CC2)C(C)(C(=O)NCc2ccc(F)cc2)C3)cc1 (stereo not drawn)	i
CC1CCC(NC(=O)c2ccc3c(=O)nc4c(-c5ccc(Cl)cc5)n[nH]n4c3c2)CC1 (stereo not drawn)	i
Fc1cccc(/C=N/N=C/c2cccc(F)c2)c1	i
CCCN1C(=O)c2cc3occc3n2CC1(C)C(=O)NC1CCCCC1 (stereo not drawn)	i
CCn1c2c(c(=O)n1Cc1ccccc1)CCN(C(=O)c1ccc(Oc3ccccc3)cc1)C2	i
COc1cc(Nc2nc(SCC(=O)NCCC(C)C)nc3ccccc23)cc(OC)c1	i
COc1cccc(Nc2cccc(CN3CCCC(C)(NC(C)=O)C3)c2)c1 (stereo not drawn)	i
CCN(C(=O)c1cccc(F)c1F)[C@@H]1CCN(c2ncccc2C#N)C[C@H]1O	i
CN1CCC[C@H]1c1nc(-c2ccc(F)cn2)no1	i
CC(C)n1c(=O)c2ccc(C(=O)NC3CCCCC3)cc2n2c(=O)n(CC(=O)NCc3ccccc3)nc12	i
O=S(=O)(NC[C@H]1O[C@@H](CO)[C@@H](O)[C@H]1N1CCOCC1)c1ccc(Cl)cc1	i
Cc1ccc(NC(=O)Cn2c(=O)oc3cc(S(=O)(=O)N4CCCCC4)ccc32)c(Cl)c1	i
Cc1c(Cl)cccc1NC(=O)Cn1c(=O)nc(N(C)c2ccccc2)c2ccccc21	i
O=C(c1ccccc1F)N1CCC(N2Cc3ccccc3C2=O)CC1	i
C[C@H]1[C@H](C)CC[C@]2(C(=O)OC3OC(CO)C(O)C(O)C3O)CC[C@]3(C(=O)O)C(=CCC4[C@@]5(C)CC[C@H](O[C@@H]6O[C@@H](C)[C@H](OC7OC(CO)C(O)C(O)C7O)[C@@H](O)[C@H]6O)C(C)(C)C5CC[C@]43C)[C@H]12 (stereo partly drawn)	?
C=C(C(=O)O)C1CC(O)C2(C)CCCC(C)(O)C2C1 (stereo not drawn)	?
CC(C)CN(C[C@@H](O)[C@H](Cc1ccccc1)NC(=O)O[C@H]1CO[C@H]2OCC[C@H]21)S(=O)(=O)c1ccc(N)cc1	?
CC1c2cccn2CCN1C(=O)Nc1ccccc1Cl (stereo not drawn)	i
COc1ccc(NC(=O)N2CCn3cccc3C2Cc2ccccc2)cc1 (stereo not drawn)	i
Cc1cc(-c2nc3ccncc3[nH]2)c(C)[nH]1	+
O=C(CCCc1nnc2n3nc(-c4ccccc4)nc3c3ccccc3n12)N1CCC(N2CCCCC2)CC1	+
O=S(=O)(NCCn1c(-c2ccccc2)nc2ccccc21)c1cc(F)ccc1F	i
Cc1c(Cl)cccc1NC(=O)N1CCCC1c1nncn1-c1ccccc1 (stereo not drawn)	i
COCCNC(=O)c1ccc2c(c1)N(C)C(CC(=O)NCC(C)C)CO2 (stereo not drawn)	i
COc1ccccc1-c1nc2nccc(-c3cccnc3)n2n1	i
CCOc1ccc(NC(=O)Cn2nc3n(c2=O)CCN(Cc2ccccc2C)C3=O)cc1	i
O=C(Nc1ccccc1F)N1CC(Oc2cccc(-c3nc(-c4ccccc4)no3)c2)C1	i
COc1ccccc1NC(=O)Cn1nc2n(Cc3ccccc3)c(=O)c3ccccc3n2c1=O	i
Cc1ccc(NC(=O)Cn2nc3n(Cc4ccc(F)cc4)c(=O)c4ccccc4n3c2=O)c(C)c1	i
COc1ccc(CCNc2nc3c(S(=O)(=O)c4ccc(C)cc4)nnn3c3ccccc23)cc1OC	i
O=C(c1c2c(nc3ccccc13)CCCC2)N1CCCC(c2nc(C3CCOCC3)no2)C1 (stereo not drawn)	i
COc1ccc(-c2nc(-c3ccccc3)nc3c2CN([S+](=O)([O-])c2cccs2)CC3)cc1	i
CCc1nc2cc(N3CCC(C(=O)NCc4cccnc4)CC3)cnc2nc1CC	i
OCCC#Cc1ccc(CN2CCC(CO)(Cc3ccccc3Cl)CC2)cc1	i
CCn1cc(S(=O)(=O)N2CC(N(C3CCOCC3)S(C)(=O)=O)C2)cn1	i
O=C1c2cc3occc3n2CC(C(=O)NC2CCCCCCC2)(c2ccccc2)N1Cc1ccc(Cl)cc1 (stereo not drawn)	i
OCC(Cc1ccccc1)Nc1nc(Oc2ccc3c(c2)CCC3)nc2c1ncn2Cc1ccc(-c2ccccc2)cc1 (stereo not drawn)	?
O=C(O)CC1(CC(=O)N[C@H]2C[C@@](O)(C(=O)N[C@H]3CCCNC3=O)C[C@@H](O)[C@@H]2O)CCCC1	i
COc1ccc(-c2cc3n(n2)CC(C)(C(=O)NC2CCCCC2)N(Cc2cccc(F)c2)C3=O)cc1 (stereo not drawn)	i
O=C1NC(=NC2CCCC2)C2(CCN(Cc3cccnc3)CC2)N1c1cc(F)cc(F)c1	i
O=C(c1ccc(Br)o1)N1CCC(c2n[nH]c(=O)n2Cc2ccc(F)cc2)CC1	i
CC(C)c1nc(-c2ccc(OC3CCNC3)cc2)no1 (stereo not drawn)	i
C[C@@H]1O[C@@H](O[C@H]2[C@H](OC(=O)[C@]34CCC(C)(C)C[C@H]3C3=CCC5[C@@]6(C)C[C@H](O)[C@H](O[C@@H]7O[C@H](CO)[C@@H](O[C@@H]8O[C@H](CO)[C@@H](O)[C@H](O)[C@H]8O)[C@H](O)[C@H]7O)[C@@](C)(CO)C6[C@H](O)C[C@@]5(C)[C@]3(C)C[C@H]4O)OC[C@H](O)[C@@H]2O)[C@H](O)[C@H](O)[C@H]1O[C@@H]1OC[C@@H](O)[C@H](O[C@@H]2OC[C@](O)(CO)[C@H]2O)[C@H]1O (stereo partly drawn)	i
CC/C=C(\C(=O)N[C@H]1C(=O)N2C(C(=O)OCOC(=O)C(C)(C)C)=C(COC(N)=O)CS[C@H]12)c1csc(N)n1	?
CCCCN1C(=O)c2ccc(-c3ccccc3)n2CC1(C)C(=O)NC1CCCCCC1 (stereo not drawn)	i
COC(=O)c1ncn2c1C(=O)N(Cc1ccccc1F)C(C)(C(=O)NC1CCCC1)C2 (stereo not drawn)	i
Cc1ccc(NC(=O)c2cc3n(n2)CC(C)(C(=O)NC2CCCCC2)N(C)C3=O)cc1C (stereo not drawn)	i
COC(=O)C(Cc1ccccc1)NC(=O)c1ccccc1 (stereo not drawn)	i
Cc1ccc(C(=O)Nc2ccc(CN3CCN(C)CC3)c(C(F)(F)F)c2)cc1C#Cc1cnc2cccnn12	?
Cc1nc(N2CCC(C(=O)NCC3CCCO3)CC2)cc(C(F)(F)F)n1 (stereo not drawn)	i
CN1C(=O)C(c2ccccc2)CC12CCN(c1ccnc(N)n1)CC2 (stereo not drawn)	+
C[C@]1(O)CC[C@@H]2C(C(=O)O)=CO[C@@H](O[C@@H]3O[C@H](COC(=O)c4ccc(O)cc4)[C@@H](O)[C@H](O)[C@H]3O)[C@@H]21	i
CCCCN1C(=O)c2ccccc2CC1(C)C(=O)NCc1ccc(Cl)cc1 (stereo not drawn)	i
COc1cccc(Cn2nc3n(C)c(=O)c4ccc(C(=O)NC5CCCCC5)cc4n3c2=O)c1	i
CCOC(=O)c1ccc2c(c1)C1C=CCC1C(c1ccc(Br)cc1)N2 (stereo not drawn)	i
COCC(=O)N(C)Cc1ccc(F)cc1	i
C=Cc1ccc(CSc2nnc3n(CCC)c(=O)c4cc(F)ccc4n23)cc1	i
CCn1nc(-c2cccc(-c3ccnn3C)c2)nc1N(C)C	i
O=C(N[C@@H]1COCC[C@@H]1OCC1CC1)c1cc(-n2cccn2)ccc1Cl	i
CCC(C(=O)NCc1cccc(C)c1)n1ccc2cc(S(=O)(=O)N3CCCCC3)ccc21 (stereo not drawn)	i

(continued)
SMILES	Methyltransferases
CN1C(=O)CC(C(=O)O)C12CCN(Cc1nc3ccsc3c(=O)[nH]1)CC2 (stereo not drawn)	i
O=S(=O)(Cc1ccccc1)N1CCC(n2cnnc2C2CC2)CC1	i
CC(C)n1cnc2c(NCc3cccc(C(F)(F)F)c3)ncnc21	?
CCCCS(=O)(=O)N1CCCC2(C1)Nc1cccnc1NC2=NCc1ccccc1 (stereo not drawn)	i
CC(C)(C)c1ccc(C(=O)NC(Cc2c[nH]c3ccccc23)C(=O)OCC(=O)c2ccc(Br)cc2)cc1 (stereo not drawn)	i
CC(CNC(=O)CCn1ccc2cc(S(=O)(=O)N3CCCCC3)ccc21)c1ccccc1 (stereo not drawn)	i
